Bioassay records: PubChem, several laboratories
Ecoli growth: blocks Escherichia coli growth. actives 0.21% (n = 330,000). OD600, 23 h; stronger effect = lower value. AID 1053175. OD600 absorbance (no concentration beside the values);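 active means OD600 absorbance below the run mean of sample wells minus 3.6 SD, in any replicate, cut at about 0.56 in these data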;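 further: stock transfer was 300 nL into about 60 µL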
FGF22 binding: binders of recombinant human FGF22 by thermal shift. SYPRO orange fluorescence; percent of sucrose octasulfate shift, DMSO zero. AID 651658. calls only at 9.99 µM. actives 1.5% (n = 340,000). Q9HCT0;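 active means melting point raised past a set limit in the mean and every replicate; inconclusive means no clear call; three in four hits are not shown here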
Target sequence (Q9HCT0 whole entry, looked up): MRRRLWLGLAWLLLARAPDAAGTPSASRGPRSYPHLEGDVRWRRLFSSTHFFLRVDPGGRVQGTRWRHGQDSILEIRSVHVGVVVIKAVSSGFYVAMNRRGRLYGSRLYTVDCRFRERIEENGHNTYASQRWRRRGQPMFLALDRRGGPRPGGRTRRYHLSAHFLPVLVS
ALR H2O2 inh: blocks human ALR sulfhydryl oxidase activity; P55789; purified ALR, DTT oxidation, H2O2 HRP-luminol luminescence; inhibition, % (test concentration not listed); actives 3.8% (n = 290,000); AID 485317;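 active means mean and each replicate at 75% or more; inconclusive means only one of the two met; inactive means neither met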;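 further: stock transfer was 7.5 nL into about 7.5 µL; 0% = neutral wells and 100% = wells with inactivated enzyme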
Target sequence (P55789 whole entry, looked up): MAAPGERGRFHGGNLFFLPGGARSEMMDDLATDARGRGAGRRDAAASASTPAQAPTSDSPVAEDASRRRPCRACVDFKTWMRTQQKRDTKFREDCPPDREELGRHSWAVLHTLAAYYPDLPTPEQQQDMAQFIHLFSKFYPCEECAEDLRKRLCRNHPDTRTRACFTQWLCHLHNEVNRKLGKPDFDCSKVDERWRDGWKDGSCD
rRNA inh HTS: inhibitors of bacterial rRNA selective over humanized ribosomes | E. coli WT GFP vs humanized-ribosome RFP mutants, fluorescence, 24 h; stronger effect = lower value; DMSO median 0, no signal -100 | GFP signal change (wild-type ribosome), % (no concentration beside the values) | actives 1.6% (n = 350,000);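 active means significant combined selectivity score with lowered wild-type GFP, culture density cut under 30%, mutant RFP and density less affected; inactive means any of these conditions unmet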; further: one replicate is shown; some compounds called inactive have numbers as strong as hits
Vif TR-FRET: HIV-1 Vif–A3G interaction blockers – biochemical, TR-FRET, GST-Vif 1-94, biotin-A3G peptide, dose response retest, primary screen (AID 1117319) | TR-FRET GST-Vif / biotin-A3G peptide binding; higher % means a stronger effect; test concentration not given here; strong numbers were not always called active | one-dose inhibition, %; IC50 in µM for titrated hits | actives 0.57% (n = 260,000);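 active means above the screen mean plus three standard deviations and confirmed in dose response; inconclusive means results disagree or hit not tested in dose response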;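 further: Vif residues 1-94 fused to GST binding biotinylated APOBEC3G peptide 110-148; 0% = full assay without inhibitor and 100% = GST in place of GST-Vif; retest series ran down from 100 µM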
MLL AF4-AF9 inh: MLL-AF4/AF9 protein interaction inhibition. AlphaScreen, biotin-AF4 peptide binding to FLAG-AF9. AID 651704. inhibition, % at 10 µM. actives 0.47% (n = 350,000);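 active means every replicate reaching a set inhibition limit, whatever the replicate mean, cut at about 25% in these data; inconclusive means mean inhibition reaches that limit but some replicates miss it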;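 further: 0% = plate neutral control median and 100% = total signal loss; the record names both 10 and 1 µM as test concentration; the first replicate is given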
HNF4A DNA FP: change in binding of human HNF4 alpha to DNA. activity change, % at 10 µM. actives 0.3% (n = 360,000). P41235. HNF4a-FITC DNA binding, fluorescence polarization, 1 h; in the data active means activity change above about 30%, passing the limit was not always enough;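 further: controls were the assay level and a saturating level of protein; the project sought stronger binding though the title names inhibitors; some compounds called inactive have numbers as strong as hits; positive values seem to mean higher polarization but the record does not say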
Target sequence (P41235 whole entry, looked up): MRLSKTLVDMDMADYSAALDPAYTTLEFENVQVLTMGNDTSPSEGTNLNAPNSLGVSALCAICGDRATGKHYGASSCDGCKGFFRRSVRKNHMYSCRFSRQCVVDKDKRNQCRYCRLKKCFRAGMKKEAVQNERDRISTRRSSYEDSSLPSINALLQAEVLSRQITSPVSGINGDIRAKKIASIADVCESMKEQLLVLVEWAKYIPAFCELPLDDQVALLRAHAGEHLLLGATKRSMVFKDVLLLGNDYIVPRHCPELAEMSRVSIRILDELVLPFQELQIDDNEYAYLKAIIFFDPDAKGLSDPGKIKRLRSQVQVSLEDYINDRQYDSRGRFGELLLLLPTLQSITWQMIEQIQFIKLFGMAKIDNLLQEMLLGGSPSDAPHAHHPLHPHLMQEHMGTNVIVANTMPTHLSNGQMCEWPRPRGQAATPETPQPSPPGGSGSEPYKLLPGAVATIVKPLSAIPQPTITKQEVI
rRNA inh HTS OD600: further read-out of rRNA inh HTS, marked with its call; OD600 change, %; measured here: OD600 growth;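 optical density of the mix in the first replicate; 0 = DMSO median and -100 = no signal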
rRNA inh HTS RFP: also measured in rRNA inh HTS; calls as there; RFP signal change, %; measured here: RFP humanized mutant strains;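 first replicate; 0 = DMSO median and -100 = no signal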
Active calls of the source: *; i = inactive; ? = inconclusive; . = no result given; & = joins results of further samples. An excerpt; the hit share may differ from the screen's.

entry | Compound | Vif TR-FRET | rRNA inh HTS | Ecoli growth | FGF22 binding | MLL AF4-AF9 inh
1 | COc1ccc(-n2nnnc2SCC(=O)Nc2cccc(NC(C)=O)c2)cc1OC | -3% | . | 0.69 | . | .
2 | O=C(NNC(=O)c1cc(-c2ccncc2)nc2ccccc12)Nc1ccc(F)cc1 | -6% | 1 | 0.71 | i | 1.6
3 | CC(C)NC(=O)N(C)C[C@H]1OCc2cn(nn2)CCCC(=O)N([C@H](C)CO)C[C@@H]1C | . | 0&14 | . | i | 1.1&-1.5
4 | O=C(NCc1ccco1)c1cccc(-c2nnc(-c3ccccc3)o2)c1 | -3% | . | 0.73 | . | .
5 | NS(=O)(=O)c1ccc(NC(=O)COC(=O)/C=C/c2ccc([N+](=O)[O-])cc2)cc1 | 8% | 9 | 0.68 | i | 0.3
6 | O=C1CC(=O)C(n2cncn2)C(c2ccc(Cl)cc2)C1 (centres undefined) | 6% | . | 0.67 | . | .
7 | Cc1ccc(CNC(=O)c2nc3nc(C)cc(C)n3n2)cc1 | -4% | . | 0.74 | . | .
8 | O=C(OCc1nnc(-c2ccccc2)o1)c1cc(=O)[nH]c2ccccc12 | 1% | 1 | 0.67 | i | -1.4
9 | CSC1=N/C(=C\c2ccc(Br)o2)C(=O)S1 | ? | . | 0.74 | . | .
10 | CSC1CCCCC1(O)CSc1nc2ccccc2o1 (centres undefined) | -3% | . | 0.68 | . | .
11 | CC=Cc1ccc2n(c1=O)C[C@H]1[C@H](CO)[C@@H](C(=O)NCc3ccc4c(c3)OCO4)[C@@H]2N1C(=O)COC (mixture of isomers) | . | -2 | . | i | -1.0
12 | OCC1(CCc2ccccc2)CCN(Cc2cnc(N3CCCC3)s2)CC1 | . | -6 | 0.72 | i | 6.3
13 | O=C(CSc1nc(-c2ccco2)cc(C(F)(F)F)n1)N1CCN(c2ccc(Cl)cc2)CC1 | 0% | . | 0.73 | . | .
14 | COc1ccc(CN(C)C[C@@H]2Oc3ccc(NC(=O)Nc4ccc5c(c4)OCO5)cc3CC(=O)N([C@@H](C)CO)C[C@@H]2C)cc1 | . | 0 | . | i | 2.5
15 | C[C@@H]1CN([C@H](C)CO)C(=O)Cc2cc(NC(=O)c3ccncc3)ccc2O[C@H]1CN(C)Cc1ccc(Oc2ccccc2)cc1 | . | -4 | . | i | 6.3

entry | HNF4A DNA FP | ALR H2O2 inh | rRNA inh HTS RFP | rRNA inh HTS OD600
1 | 3.2 | 99* | . | .
2 | -0.8 | 30 | 1.0 | 10
3 | . | . | -2.0&1.7 | 6&20
4 | 0.6 | -3 | . | .
5 | 0.2 | -6 | 0.1 | 6
6 | -4.2 | -9 | . | .
7 | -2.8 | -18 | . | .
8 | 0.3 | 4 | 0.7 | 7
9 | -12 | . | . | .
10 | -7.7 | -1 | . | .
11 | . | . | -0.8 | -1
12 | -2.9 | -3 | -1.2 | -2
13 | 1.3 | 5 | . | .
14 | . | . | 18 | -10
15 | . | . | 18 | -12

Single entries from the results shown:
Vif TR-FRET, `O=C1CC(=O)C(n2cncn2)C(c2ccc(Cl)cc2)C1` (centres undefined) reads 6%
MLL AF4-AF9 inh, `COc1ccc(CN(C)C[C@@H]2Oc3ccc(NC(=O)Nc4ccc5c(c4)OCO5)cc3CC(=O)N([C@@H](C)CO)C[C@@H]2C)cc1` reads 2.5
MLL AF4-AF9 inh, `C[C@@H]1CN([C@H](C)CO)C(=O)Cc2cc(NC(=O)c3ccncc3)ccc2O[C@H]1CN(C)Cc1ccc(Oc2ccccc2)cc1` reads 6.3
Vif TR-FRET, `O=C(NCc1ccco1)c1cccc(-c2nnc(-c3ccccc3)o2)c1` reads -3%
ALR H2O2 inh, `O=C(CSc1nc(-c2ccco2)cc(C(F)(F)F)n1)N1CCN(c2ccc(Cl)cc2)CC1` reads 5
MLL AF4-AF9 inh, `CC(C)NC(=O)N(C)C[C@H]1OCc2cn(nn2)CCCC(=O)N([C@H](C)CO)C[C@@H]1C` reads 1.1&-1.5

Next section:
entry | Compound | Vif TR-FRET | rRNA inh HTS | Ecoli growth | FGF22 binding | MLL AF4-AF9 inh
16 | CCN(CC)c1ccc(NC(=O)c2ccccc2F)cc1 | 11% | . | 0.7 | . | .
17 | Cc1cccc(OCC(=O)Nc2ccc3oc(=O)ccc3c2)c1C | . | 8 | 0.67 | i | -0.9
18 | O=C(CCCN=C1NS(=O)(=O)c2ccccc21)OCc1ccccc1 | 1% | -11 | 0.69 | i | 2.5
19 | CCOc1ccc(NC(=S)N(CC)Cc2ccccc2)cc1 | -1% | . | 0.67 | . | .
20 | Cc1ccc(SCC(=O)NCc2ccco2)cc1 | 25% | . | 0.66 | . | .
21 | N#Cc1c(-c2ccco2)c2c([nH]c1=S)CCCC2 | 12µM* | . | 0.74 | . | .
22 | CCN(c1ccccc1)c1nc(C#N)nc(N(CC)c2ccccc2)n1 | 6% | -1 | 0.73 | i | -1.3
23 | O=C(c1cn(-c2ccccc2)nc1-c1ccncc1)n1nnc2ccccc21 | . | 3 | 0.74 | . | .
24 | CC(OC(=O)c1ccncc1)C(=O)Nc1cc(S(=O)(=O)N2CCCCC2)ccc1Cl (centres undefined) | -1% | . | 0.71 | . | .
25 | Cc1cccnc1NC(=O)c1ccc(S(=O)(=O)N2CC(C)OC(C)C2)cc1 (centres undefined) | 11% | 4 | 0.69 | i | -3.6
26 | CCOC(=O)c1csc(NC(=O)CSc2nnnn2CC)n1 | 17% | . | 0.72 | . | .
27 | O=C(O)c1ccc(N/N=C/c2ccc(-c3ccccc3)cc2)cc1 | -12% | -45 | . | . | 11
28 | CCCN(C)C[C@H]1Oc2ncc(-c3ccccc3OC)cc2C(=O)N([C@H](C)CO)C[C@H]1C | . | 2 | . | i | 0.9
29 | O=C(NCCCN1CCN(c2ccccc2F)CC1)Nc1ccccc1[N+](=O)[O-] | -7% | -2 | 0.64 | i | -8.7
30 | O=C(Nc1c(C(=O)N2CCOCC2)cnn1-c1ccccc1)c1ccccc1F | -2% | 2 | 0.67 | i | 2.2

entry | HNF4A DNA FP | ALR H2O2 inh | rRNA inh HTS RFP | rRNA inh HTS OD600
16 | -3.1 | 99* | . | .
17 | -1.8 | 10 | -0.7 | 6
18 | 0.0 | -1 | -5.1 | -8
19 | . | 0 | . | .
20 | 2.1 | 1 | . | .
21 | 6.2 | 11 | . | .
22 | 0.4 | 1 | 5.1 | -4
23 | 0.1 | 2 | 2.5 | 4
24 | 4.0 | . | . | .
25 | -3.0 | 3 | -0.9 | -2
26 | -2.9 | 99* | . | .
27 | -5.8 | . | -14 | -58
28 | . | . | -2.0 | 5
29 | 1.8 | 0 | -5.9 | -2
30 | 1.0 | . | -4.0 | 4

The results go on.
entry | Compound | Vif TR-FRET | rRNA inh HTS | Ecoli growth | FGF22 binding | MLL AF4-AF9 inh
31 | Cc1ccc(NC(=O)CN(C)C(=O)c2ccc(COc3ccccc3)cc2)cc1 | -3% | -2 | 0.63 | i | -8.7
32 | Cc1ccc(C)c(NC(=O)CN(C)C(=O)CC2OC(=O)c3ccccc32)c1 (centres undefined) | 2% | 17 | 0.63 | i | -10.0
33 | O=C(C[C@H]1C[C@@H]2c3cc(NS(=O)(=O)c4ccc(F)cc4)ccc3O[C@@H]2[C@@H](CO)O1)N1CCc2ccccc2C1 | . | -28 | . | i | -1.2
34 | Cc1noc(C)c1NC(=O)N(C)C[C@@H]1Oc2ccc(NS(=O)(=O)c3cn(C)cn3)cc2CC(=O)N([C@H](C)CO)C[C@@H]1C | . | 4 | . | i | -1.5
35 | CC(C)(C)c1cc2nc(N)nc(N)n2n1 | -9% | . | 0.68 | i | -1.5
36 | COc1ccc(S(=O)(=O)Nc2cccc3c2O[C@@H](CN(C)S(=O)(=O)c2c(C)noc2C)[C@H](C)CN([C@@H](C)CO)C3=O)cc1 | . | 2 | . | i | -3.7
37 | O=C(Nc1nc2ccc(SC(F)F)cc2s1)c1ccc(NS(=O)(=O)c2ccc(F)c(F)c2)cc1 | -12% | -17 | 0.62 | i | 11
38 | Cn1nc(C(=O)Nc2nc(-c3ccccn3)cs2)c2ccccc2c1=O | 11% | 6 | 0.66 | i | -1.1
39 | O=C(COC(=O)C12CC3CC(CC(C3)C1)C2)Nc1ccc(OC(F)F)cc1 | -2% | . | 0.66 | . | .
40 | CCOC(=O)CCc1c(C)nc(SCCCn2c(=O)[nH]c3ccccc32)c(C#N)c1C | -5% | . | 0.73 | . | .
41 | O=C(C1CCOCC1)N1C[C@@H]2[C@H](c3ccccc31)[C@@H](CO)N2C(=O)Nc1cccc(F)c1 | . | -1 | . | i | -0.4
42 | CC1CCN(c2nc(-c3ccco3)c3c(c2C#N)CC(C)(C)OC3)CC1 | 27% | 0 | 0.71 | i | -10
43 | Brc1ccc(C2=CSC3=NCCN23)cc1 | -5% | 6 | 0.66 | i | -0.5
44 | O=C(Nc1ccc2c(c1)OC1(CCCC1)O2)C1CC1 | 17% | . | 0.69 | . | .
45 | CC1=CC(C)(C)N(C(=O)c2ccccc2)c2ccccc21 | -2% | . | 0.7 | . | .

entry | HNF4A DNA FP | ALR H2O2 inh | rRNA inh HTS RFP | rRNA inh HTS OD600
31 | 2.8 | -21 | -0.1 | -2
32 | 1.9 | -3 | 6.4 | 11
33 | . | . | -4.4 | -34
34 | . | . | 1.7 | 5
35 | 0.4 | 0 | . | .
36 | . | . | -0.1 | -1
37 | 0.0 | 99* | 8.8 | -10
38 | -0.9 | . | -0.3 | 17
39 | -2.8 | -2 | . | .
40 | -4.9 | -1 | . | .
41 | . | . | -0.7 | 6
42 | 1.0 | . | 5.2 | 10
43 | -5.1 | . | 1.6 | -1
44 | -2.0 | 2 | . | .
45 | 2.6 | . | . | .

Records listed above shown as hits in Vif TR-FRET.
entry | Compound | Vif TR-FRET | rRNA inh HTS | Ecoli growth | FGF22 binding | MLL AF4-AF9 inh
21 | N#Cc1c(-c2ccco2)c2c([nH]c1=S)CCCC2 | 12µM* | . | 0.74 | . | .

entry | HNF4A DNA FP | ALR H2O2 inh | rRNA inh HTS RFP | rRNA inh HTS OD600
21 | 6.2 | 11 | . | .

Next section:
entry | Compound | Vif TR-FRET | rRNA inh HTS | Ecoli growth | FGF22 binding | MLL AF4-AF9 inh
46 | COc1ccc(C#Cc2cnc3c(c2)C(=O)N([C@@H](C)CO)C[C@H](C)[C@@H](CN(C)C)O3)cc1 | . | 0 | . | i | 10
47 | COCCn1nnnc1C(c1cc2cc(C)cc(C)c2[nH]c1=O)N1CCN(c2ccccc2F)CC1 (centres undefined) | 29% | . | 0.58 | . | .
48 | C[C@H]1CN([C@@H](C)CO)C(=O)Cc2cc(NC(=O)Cn3cnnn3)ccc2O[C@H]1CN(C)Cc1ccc(Cl)c(Cl)c1 | . | -11 | . | i | 1.7
49 | Cc1c2n(c3ccccc13)CCC2=O | -1% | 4 | 0.66 | i | -0.2

entry | HNF4A DNA FP | ALR H2O2 inh | rRNA inh HTS RFP | rRNA inh HTS OD600
46 | . | . | 0.6 | 1
47 | -0.9 | -9 | . | .
48 | . | . | 2.3 | -20
49 | 2.2 | . | -1.0 | 0

Structural class, the compounds so far containing a nitro group on carbon (two)
entry | Compound | Vif TR-FRET | rRNA inh HTS | Ecoli growth | FGF22 binding | MLL AF4-AF9 inh
5 | NS(=O)(=O)c1ccc(NC(=O)COC(=O)/C=C/c2ccc([N+](=O)[O-])cc2)cc1 | 8% | 9 | 0.68 | i | 0.3
29 | O=C(NCCCN1CCN(c2ccccc2F)CC1)Nc1ccccc1[N+](=O)[O-] | -7% | -2 | 0.64 | i | -8.7

entry | HNF4A DNA FP | ALR H2O2 inh | rRNA inh HTS RFP | rRNA inh HTS OD600
5 | 0.2 | -6 | 0.1 | 6
29 | 1.8 | 0 | -5.9 | -2
